# MgcRacGAP Rac1 = inhibition of MgcRacGAP-stimulated Rac1 GTP hydrolysis – biochemical, inorganic phosphate detection, orthogonal assay, confirmation (AID 652142). 2,400 tested, under 10 active. inhibition, %. MgcRacGAP/Rac1F28L GTP hydrolysis, Biomol green phosphate; stronger effect = higher value; test concentration not given here; none was called active though about 1 in 100 pass the limit;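 active means inhibition over three standard deviations or about 65%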;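 further: full inhibition control lacks the GAP enzyme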
# * = called active by the depositor; & = joins results of further samples. Not all compounds are listed; the hit share may differ from the screen's.
SMILES,MgcRacGAP Rac1
O=C1c2c(O)ccc(O)c2C(=O)c2c(NCCNCCO)ccc(NCCNCCO)c21,49&50

# High-throughput results (PubChem BioAssay)
